Assay outcomes from PubChem BioAssay.
NPYLR7 agonist – activates Aedes aegypti NPYLR7 receptor; activation, % at 10 µM; 270,000 tested, 0.15% active; HEK293T NPYLR7/Galpha15, GCaMP6s calcium fluorescence; in the data active means activation above about 40%;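 further: 0% = vehicle and 100% = reference agonist at the receptor; some compounds past the cut are filed as inactive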
NPYLR7 agonist max-min – second read-out of NPYLR7 agonist, no call of its own (marks repeat the call); activation, %; measured here: Max-Min RFU normalised activation; some inactives read as strong as hits;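 span of the calcium signal over five minutes; 0% = vehicle and 100% = native peptide agonist; compound fluorescence can raise it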
The depositor's hits bear a star. These rows are one share of the data. The share of hits here may be higher or lower than overall.

SMILES	NPYLR7 agonist	NPYLR7 agonist max-min
NC(=O)c1ccc(NC(=O)C2CCN(c3ccc(-c4cccnc4)nn3)CC2)cc1	-10	-15
Cc1ccc(-n2nc(C(C)(C)C)cc2NC(=O)CN(Cc2ccccc2)C(=O)c2ccc(Br)cc2)cc1	11	19
CCOC(=O)CNC(=O)N(CC(=O)N(Cc1ccccc1)Cc1cccn1Cc1ccc(F)cc1)CC(C)C	1	10
CCCCCCn1c(N2CCN(c3ccccc3)CC2)nc2c1c(=O)n(C)c(=O)n2C	4	25
Cc1nn(-c2ccc(F)cc2)c(C)c1C(=O)N1CCOC2(CNCCOC2)C1 (centres undefined)	9	5
O=S(=O)(NCc1ccccc1)N1CCCN(c2ccncc2)CC1	-6	-8
O=C(CSc1nc(=O)n(CCN2CCOCC2)c2c1CCC2)N1CCCc2ccccc21	-2	-4
CC(C)N(Cc1ccc(C#N)cc1)C(=O)c1ccc(N2CCCC2)nn1	-9	-9
c1ccc(-c2cnc(CSc3nnc(C4CC4)n3C3CC3)o2)cc1	6	6
CCOc1ccc2ncc(C#N)c(Nc3cc(OC)cc(OC)c3)c2c1	-2	-5
COCCN(CC(=O)Nc1cc(-c2ccccc2)nn1-c1ccc(F)cc1)C(=O)Nc1ccc(Cl)cc1Cl	1	13
C=CCNCc1nc2scc(-c3cccc(OC)c3)c2c(=O)[nH]1	23	33
CNC(=O)CNC(=O)C(=O)Nc1ccc(N2CCc3ccccc32)cc1	5	2
CCN(CCN1C(=O)CSC1c1cccc(C(F)(F)F)c1)C(=O)c1cccc(F)c1 (centres undefined)	2	4
CNC(=O)c1[nH]nc2c1C(Cc1ccccc1)CC(=O)N2 (centres undefined)	-6	-8
C=CCCC(=O)N1CCC(OCC(=O)OCC)c2ccccc2N(C)C(=O)C1 (centres undefined)	7	15
O=C(O)CSc1nn(-c2ccc(F)cc2)c(=S)s1	18	21
CC(=O)OC1CCC2C3CCc4cc(O)ccc4C3CCC12C (centres undefined)	-18	-21
Cc1ccc(-c2nc(CN3CCCCC3CCn3cccn3)c(C)o2)s1 (centres undefined)	11	-2
COc1ccc(C)cc1S(=O)(=O)Nc1ccc(-c2cn3ccc(C)nc3n2)cc1	1	-1

Quoted at random: 2 entries already listed.
SMILES	NPYLR7 agonist	NPYLR7 agonist max-min
CNC(=O)CNC(=O)C(=O)Nc1ccc(N2CCc3ccccc32)cc1	5	2
O=C(O)CSc1nn(-c2ccc(F)cc2)c(=S)s1	18	21

Among those listed so far, these contain fluorine.
SMILES	NPYLR7 agonist	NPYLR7 agonist max-min
CCOC(=O)CNC(=O)N(CC(=O)N(Cc1ccccc1)Cc1cccn1Cc1ccc(F)cc1)CC(C)C	1	10
Cc1nn(-c2ccc(F)cc2)c(C)c1C(=O)N1CCOC2(CNCCOC2)C1 (centres undefined)	9	5
COCCN(CC(=O)Nc1cc(-c2ccccc2)nn1-c1ccc(F)cc1)C(=O)Nc1ccc(Cl)cc1Cl	1	13
CCN(CCN1C(=O)CSC1c1cccc(C(F)(F)F)c1)C(=O)c1cccc(F)c1 (centres undefined)	2	4
O=C(O)CSc1nn(-c2ccc(F)cc2)c(=S)s1	18	21

Next structures.
SMILES	NPYLR7 agonist	NPYLR7 agonist max-min
CNC(=O)Cn1c2c(c3ccccc31)C[C@H]1C[C@@H]2[C@@H](OC)CN1C(=O)Cc1cccs1	-5	-2
CN(Cc1ccncn1)C(=O)C1CCCN(c2nc(-c3ccccc3)nc3c2CCC3)C1 (centres undefined)	10	6
CCC(C(=O)N1CCN(C(=O)c2ccco2)CC1)n1nc(C)n2c(cc3occc32)c1=O (centres undefined)	-4	-2
COc1ccc(C2c3ccsc3CCN2C(=O)CN(C(=O)c2ccco2)C(C)(C)C)cc1 (centres undefined)	13	16
Cc1cc(C)c2c(=O)n(-c3ccccc3)[nH]c2n1	-1	-2
O=C(CNCCS(=O)(=O)N1CCCC1)NC1CCCCCCC1	2	1
O=C(Nc1ccnn1C1CCCCC1)c1cc(Cl)c2c(c1)OCO2	-3	-6
Cc1cccc(CNC(=O)Cc2c(C)nc(-c3ncccn3)[nH]c2=O)c1	7	8
Clc1ccc(Cl)c2sc(N3CCCC3)nc12	4	4
Cc1cccc(N2CCC(NCCc3nnc(N)s3)CC2)c1C	1	-1
C=CCN(Cc1nccn1Cc1ccccc1)C(=O)NC(C)C	9	22
CCc1ccccc1OCCCN(C)C(=O)c1cnc2cccc(C)n2c1=O	-9	-16
COc1ccc(C(C)C)cc1-c1cnc(NC(C)=O)cn1	5	1
c1ccc2c(c1)C(=NC1CCCCC1)NC2=NC1CCCCC1	2	1
COCCCn1cc(C(=O)N2CCN(Cc3ccccc3C)CC2)c2nn(-c3ccccc3)c(=O)c-2c1	-3	-6
Cc1nc2cc(NC(=O)C3CC34CCN(C(=O)/C=C/c3cccc(F)c3)CC4)ccc2s1 (centres undefined)	29	10
C=CCNC(=O)C(=Cc1ccccc1)NC(=O)c1ccccc1	3	-3
CCN1CCN(C(c2cccs2)C(C)NC(=O)c2cc(OC)c(OC)c(OC)c2)CC1 (centres undefined)	12	7
CC(OC(=O)c1sccc1S(N)(=O)=O)C(=O)Nc1ccc(F)c(Cl)c1 (centres undefined)	10	6
Cc1nccn1CCC(=O)NCc1cnn2ccccc12	-2	-8
O=C(CC(NCCC1=CCCCC1)C(=O)O)Nc1ccc(OC(F)F)cc1 (centres undefined)	0	-4
Cc1nc(CNC2(c3ccc(Br)cc3)CCC2)oc1C	1	-1
Cc1cnc(C(=O)OCC(=O)N(C)C2(C#N)CCC(C)CC2)cn1 (centres undefined)	3	-1
COc1ccc(Cc2nnc(SCC(=O)N(c3ccccc3)C(C)C)[nH]c2=O)cc1	-9	-10
Cc1ccc(C(=O)N2CCC3(CC2)C(=O)N(CC(=O)NCCc2ccc(Cl)cc2Cl)CN3c2ccccc2)cc1[N+](=O)[O-]	21	14
Cc1ccccc1OCC(=O)Nn1cnc2c(cnn2-c2ccccc2)c1=O	4	-2
CCCCCCCOc1ccc(C(=O)N2CCC(c3cn(C)c4ccc(C)cc34)CC2)cc1	0	12
CC(=O)c1ccc(Nc2nc(-c3ccccc3)c3cc(Cl)ccc3n2)cc1	-3	-10
O=C(NCCn1ncc2c(N3CCCCC3)ncnc21)C1CCCC1	0	-2
Cc1cnc(C(=O)NCC23CC4CC(CC(C4)C2)C3)cn1	0	2
O=c1oc2c(Cl)cc(Cl)cc2cc1-c1nnc(-c2ccc([N+](=O)[O-])cc2)o1	-3	-9
Cc1sc2nc(C3CC3)nc(N3CCN(C(=O)c4ccco4)CC3)c2c1C	-13	-10
COC(=O)Cn1c(=NC(=O)c2cc(C)no2)sc2cc(F)ccc21	7	10
CC(C)Cc1ncc2c(n1)CN(C(=O)C1CC(=O)c3ccccc31)C2 (centres undefined)	1	3
O=C(C1CCOC1)N1CCN(S(=O)(=O)c2ccccc2)CC1 (centres undefined)	1	-4
Cc1cc(=O)n2ncn(Cc3ccccc3)c2n1	4	3
N#Cc1cnn(-c2ccc(NC(=O)CC3CCCCC3)cc2)c1N	0	0
CC1CCCCN1C(=O)CN1CCN(C(=O)c2ccc(C3SCCS3)cc2)CC1 (centres undefined)	0	-3
Cc1cc(C)c(-c2ccc(=O)n(CC(N)=O)n2)cc1C	7	3
CCc1cccc(NC(=O)CSc2nccn3nc(-c4ccc(F)cc4)cc23)c1	-2	-5

Compound profiles, as listed above. Values in the order: NPYLR7 agonist	NPYLR7 agonist max-min
`CC(C)Cc1ncc2c(n1)CN(C(=O)C1CC(=O)c3ccccc31)C2` (centres undefined) in the list: 1	3
`Cc1sc2nc(C3CC3)nc(N3CCN(C(=O)c4ccco4)CC3)c2c1C` in the list: -13	-10
`CCc1cccc(NC(=O)CSc2nccn3nc(-c4ccc(F)cc4)cc23)c1` in the list: -2	-5
`O=C(C1CCOC1)N1CCN(S(=O)(=O)c2ccccc2)CC1` (centres undefined) in the list: 1	-4
`N#Cc1cnn(-c2ccc(NC(=O)CC3CCCCC3)cc2)c1N` in the list: 0	0

Copied from the list.
NPYLR7 agonist, CCc1cccc(NC(=O)CSc2nccn3nc(-c4ccc(F)cc4)cc23)c1 reads -2
NPYLR7 agonist max-min, O=c1oc2c(Cl)cc(Cl)cc2cc1-c1nnc(-c2ccc([N+](=O)[O-])cc2)o1 reads -9
NPYLR7 agonist, Cc1cc(=O)n2ncn(Cc3ccccc3)c2n1 reads 4

Other structures
SMILES	NPYLR7 agonist	NPYLR7 agonist max-min
CONC(=O)c1cn(Cc2ccc(C)cc2)nc1-c1ccc(C)cc1	2	0
CCOc1ccc(NC(=O)c2c(NC(=O)c3ccc([N+](=O)[O-])cc3)sc3c2CCCC3)cc1	7	4
CN1CC2(C)CN(C(=O)c3ccccc3Cl)CC(C)(C1)C2	-1	-8
Cc1ccc(-c2cn3cccnc3n2)cc1NC(=O)C(C)(C)C	6	9
Cc1ccc(Cl)c(Oc2cc(N3CCN(S(=O)(=O)c4ccc(Cl)cc4)C(C)C3)ncn2)c1 (centres undefined)	-17	-4
O=C(COC(=O)c1cc(=O)[nH]c2ccccc12)Nc1ccc2c(c1)OCCCO2	-5	-5
O=C(NCCNc1nc(-c2cccs2)nc2ccccc12)c1ccccc1Cl	2	10
O=C(CC1(c2cccc(F)c2)CC(=O)N(C2CCCC2)C1=O)N1CCC(C(O)c2cccs2)CC1 (centres undefined)	1	0
COc1ccccc1N1CCN(Cc2cccc(C(C)=O)c2)C(C)C1 (centres undefined)	1	0
CNc1nc(Nc2ccc(C)c(C)c2)c2nccnc2n1	2	3
CN1CCCC1CCNC(=O)C1(Oc2ccc3ncccc3c2)CCNCC1 (centres undefined)	3	2
CSCCC(=O)N1CCC(n2c(=O)oc3c(C)cc(C)cc32)CC1	4	6
Cc1nc(C)c(CC(=O)N2CCCC(c3[nH]ncc3-c3ccccc3)C2)c(=O)[nH]1 (centres undefined)	17	2
CCCCOc1ccc(S(=O)(=O)NCc2ccc3c(c2)OCO3)cc1	-3	-6
COCCN(Cc1cccn1Cc1ccccc1)C(=O)CN(CCC(C)C)C(=O)c1cccc(Br)c1	-11	-11
CC1(c2cc(C(=O)N3CCC4(CCNC4=O)CC3)c3ccccc3n2)CC1	8	10
C=CCOC(=O)C1C(C)=Nc2nc(SCCC)[nH]c(=O)c2C1c1ccc(C(=O)OC)cc1 (centres undefined)	1	0
COc1ccc2[nH]c3c(c2c1)CCN(C(=O)/C=C/c1ccccc1Cl)C3COCc1ccccc1 (centres undefined)	1	6
COc1cc(OC)c(C=NN2CCN(C3c4ccccc4-c4ccccc43)CC2)c(OC)c1	4	3
O=C(NCCOc1ccc2nnc(-c3cccc(F)c3)n2n1)Nc1ccccc1F	2	0
CC1CCCC(C)N1C(=O)CN1C(=O)c2ccccc2C1=O (centres undefined)	-1	-8
Cc1ccc2sc(N(Cc3ccccc3)C(=O)C3CCCN3S(C)(=O)=O)nc2c1C (centres undefined)	-3	-1
CSc1ccccc1C(=O)NC(C)c1cnn(-c2cccc3ccccc23)c1C (centres undefined)	6	-1
O=[N+]([O-])c1cc2c(cc1N=Nc1ccc(O)c3ccccc13)OCCO2	-2	-2
O=C(CNC(=O)c1ccco1)Nc1nc(-c2ccc(Cl)cc2)cs1	-6	-5
Cc1ccc(-c2nnc(SCCCC(=O)N3CCN(C(=O)c4ccc(C)c([N+](=O)[O-])c4)C(C)C3)n2-c2ccc(C)cc2)cc1 (centres undefined)	16	17
CCN(CC)S(=O)(=O)c1ccc(N=Nc2ccc3ccccc3c2O)cc1	2	-2
CCCCC(=O)N1CCc2[nH]nc(C(=O)NCC3CCCO3)c2C1 (centres undefined)	20	15
